# Screening results: PubChem, National Center for Advancing Translational Sciences (NCATS)
# gsp antagonist: qHTS for Antagonists of gsp, the Etiologic Mutation Responsible for Fibrous Dysplasia/McCune-Albright Syndrome: qHTS. Potency, µM (series often up to 76.9 µM), without a hit: at the top dose activity change, negative = inhibition, actives largely listed as inhibitors. gsp-mutant cells, cAMP HTRF, 30 min; control for the full effect not named in the record. actives 0.4% (n = 340,000). AID 624288, 2012; active = falling curve of any shape with a large fitted effect; inconclusive = falling curve, mostly with a smaller effect; inactive = flat or rising curve; cell line not stated here;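 further: intracellular cAMP measured with PDE inhibitor Ro 20-1724 present during compound exposure; potency means the concentration at half of the fitted maximal effect; on the % scale 0 is the no-effect control and ±100 the full control effect; nearly all actives have a fitted effect of over 65% in size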
#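 Measurement of cellular cAMP by homogeneous time-resolved fluorescence following a 30 min compound exposure at 37C. The PDE inhibitor […] was present throughout; the assay buffer was DPBS with 0.05% BSA and 0.005% Tween 20.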
# D2 potentiator: Beta-Arrestin HTS for Positive Allosteric Modulators of the Human D2 Dopamine Receptor: Potentiators; D(2) dopamine receptor (Homo sapiens), P14416; DiscoveRx D2 beta-arrestin cells, luminescence, 90 min; 100% = 57 uM dopamine signal; AID 624464, 2012; actives 0.23% (n = 360,000); potentiation, % (no concentration beside the values); active = potentiation of 50% or more; inconclusive = 30% to 50%; inactive = 30% or less;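 further: compound concentration not given in the record; tested on top of an EC20 dose of dopamine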
# Target sequence (P14416 whole entry, looked up): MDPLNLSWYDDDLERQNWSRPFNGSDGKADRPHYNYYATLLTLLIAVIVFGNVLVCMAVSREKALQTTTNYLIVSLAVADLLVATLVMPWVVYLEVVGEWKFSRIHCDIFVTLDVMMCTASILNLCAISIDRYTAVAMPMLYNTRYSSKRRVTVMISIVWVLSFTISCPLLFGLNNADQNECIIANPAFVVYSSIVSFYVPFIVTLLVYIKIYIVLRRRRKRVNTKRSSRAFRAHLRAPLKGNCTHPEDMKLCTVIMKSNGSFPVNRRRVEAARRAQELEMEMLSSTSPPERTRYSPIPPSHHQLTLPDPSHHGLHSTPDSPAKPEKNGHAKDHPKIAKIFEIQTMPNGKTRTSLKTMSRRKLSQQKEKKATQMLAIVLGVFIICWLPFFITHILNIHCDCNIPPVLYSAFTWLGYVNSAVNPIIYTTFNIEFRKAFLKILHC
#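 PathHunter D2 cells, attached overnight at 37 deg C, received compound in DMSO plus dopamine at EC20 (50 nM final) for 90 min at 37 deg C. Beta-arrestin recruitment was read as luminescence after 1 h with detection reagent at ambient temperature.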
# TRPV1 PAM: HTS Assay for Compounds that Act as Potentiators of the Vanilloid Receptor 1. TRPV1-expressing cells, Fluo-8 calcium influx, capsaicin EC20 potentiation; host cell line not named in the record; control for the full effect not named in the record. potentiation, % at 8.33 µM. actives 0.02% (n = 320,000). AID 540277, 2011; active means potentiation above 80%; inconclusive means 30% to 80%; inactive means below 30%; further: 0% is about no effect
#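 TRPV1-expressing cells were cultured overnight at 35.5C and loaded with Fluo-8 calcium dye for 40 to 90 min at room temperature. After a 10 s baseline, compound was added and calcium influx was read kinetically for 3 min (ex 480/em 520 nm).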
# Menin MLL FP FL: qHTS Assay for Inhibitors Targeting the Menin-MLL Interaction in MLL Related Leukemias: Competition With Fluorescein Labeled MLL-derived Peptide. Fluorescence polarization, fluorescein-MLL peptide displacement from menin. FP activity change, % at 61.4 µM. 290,000 tested, under 10 active; inconclusive = falling polarisation curve, or a change in total fluorescence; inactive = total fluorescence flat and polarisation flat or rising; no compound was filed as active; the % refers to the polarisation; negative = inhibition;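 further: % of control where 0% means no effect; inhibitors lower the polarisation; unlabelled MLL peptide was the positive control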
# gsp agonist: qHTS for Agonist of gsp, the Etiologic Mutation Responsible for Fibrous Dysplasia/McCune-Albright Syndrome: qHTS; gsp mutant cells, cAMP HTRF, 30 min; control for the full effect not named in the record; Potency, µM (highest dose often 76.9 µM), for the others: at the highest dose activation (cAMP increase), actives largely listed as activators; actives 0.13% (n = 340,000); active = well fitted activation curve with a large enough effect; inconclusive = small, poorly fitted or top-dose-only effect, or another doubt; inactive = no such curve, though single readings can be large or run the other way; cell line not stated here;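 further: phosphodiesterase inhibitor Ro 20-1724 added with compounds to block cAMP breakdown; potency means the concentration at half of the fitted maximal effect; nearly all actives have a fitted effect of over 60% in size; about a fifth of the inactives were tested at one dose only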
#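 Cells stably selected in G418 were plated at 2000/well, grown 16-24 hr, then given compounds in DMSO with the PDE inhibitor […] (300 uM solution added) for 30 min at 37C; cAMP was read by HTRF.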
# ClpP mod: qHTS Assay for Activators of ClpP; ATP-dependent Clp protease proteolytic subunit (Bacillus subtilis (strain 168)), P80244; purified B. subtilis ClpP, FRET peptide cleavage, 20 min; Potency, µM (titrated, usually from 57.5 µM), for inactives: at the top dose activity change, negative = active; actives 1.9% (n = 340,000); AID 651965, 2013; active = well fitted falling curve with a large enough effect; inconclusive = small, poorly fitted or top-dose-only effect; inactive = no such curve, though single readings can be large or run the other way; further: potency means the concentration at half of the fitted maximal effect; the source files actives as falling curves though it sought activators and does not explain the sign; nearly all actives have a fitted effect of over 65% in size; many hits overshoot -100%
# Target sequence (P80244 whole entry, looked up): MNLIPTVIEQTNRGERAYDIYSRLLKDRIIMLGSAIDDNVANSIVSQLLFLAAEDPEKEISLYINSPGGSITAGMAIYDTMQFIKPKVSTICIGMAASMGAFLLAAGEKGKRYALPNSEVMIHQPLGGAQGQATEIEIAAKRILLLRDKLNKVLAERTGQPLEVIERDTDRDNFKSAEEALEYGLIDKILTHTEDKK
#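 FRET quenching reversal measured ClpP activation: 10 microg/mL B. subtilis ClpP at pH 8 with the FRET-FV decapeptide, read at 430 nm after 320 nm excitation. The 20-min minus 0-min signal was scaled between DMSO/no-enzyme wells and ADEP (5.8 microM final).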
# Sfp inh: qHTS Assay for Inhibitors of Bacillus subtilis Sfp phosphopantetheinyl transferase (PPTase) | 4'-phosphopantetheinyl transferase ffp (Bacillus subtilis), Q9F4F7 | Biochemical Sfp PPTase activity, qHTS | Potency, µM, inactives show max response, negative = inhibition, most hits filed as inhibitors | actives 3.5% (n = 310,000); active means well fitted inhibition curve with a large enough effect; inconclusive means small, poorly fitted or top-dose-only effect, or another doubt; inactive means no such curve, though single readings can be large or run the other way;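 further: the enzyme is Sfp with the accession as filed and its product quenches rhodamine fluorescence; potency means the concentration at half of the fitted maximal effect; 0% = enzyme reaction without inhibitor and -100% = no enzyme wells; top concentration of the series not given in the record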
#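 Sfp 15 nM + cpd, 15 min RT; start w/ rhodamine-CoA 5 uM, BHQ-2-YbbR 12.5 uM (final); 50 mM Hepes pH 7.6, 10 mM MgCl2, 0.01% NP-40, 0.01% BSA; read 525/598 nm at 0 and 30 min.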
# * hit, by the source's call; ? = inconclusive; . = no result given; & = joins results of further samples; [ ] = another dose, or the depositor's remark.
SMILES,gsp antagonist,D2 potentiator,TRPV1 PAM,Menin MLL FP FL,gsp agonist,ClpP mod,Sfp inh
Cc1ccc(N2C(=O)N(CC(=O)Nc3cccc(Cl)c3)C(=O)C2C)cc1 (stereo not given),2%,-4,-11,.,9%,1.0%,.
CC1=CC(c2ccc(Cl)cc2)n2nc(N3C(=O)CCC3=O)nc2N1 (stereo not given),5%,-7,-3,0.3,22%,10µM*,-5%
COc1nc(NCC(C)C)nc(Oc2ccc(OCc3ccccc3)nn2)n1,10%,-7,21,-5.0,7%,-0.7%,6%
COc1ccc(/C=C/C(=O)N2CCCc3ccccc32)c(OC)c1,?,-3,-6,-9.6,-25%[15.4 µM],.,-11%
CCOc1ccc(NC(=S)NCCCc2ccccc2)cc1,-14%,-2,-13,4.4,13%[15.4 µM],.,9%
O=CNC1c2ccccc2CCc2ccccc21,2%,-12,.,.,-3%,-1.9%,.
COc1ccc(S(=O)(=O)N2CCCC2)c(C)c1C,?,2,-21,2.1,11%,-0.8%,13%
Cc1cc(C)n(-c2ccc(C(=O)C(C#N)c3nc4ccccc4n3C)cc2)n1 (stereo not given),-4%,-7,10,2.6,-59%,0.7%,1%
CSc1nc2ccsc2c(=O)n1-c1ccccn1,-11%,-3,-3,0.4,10%,.,14%
COc1cc(C(=O)Nc2ccc3c(c2)OCCO3)ccc1OC(F)F,-21%,-6,-6,9.2,15%,-2.8%,-3%
COc1ccc(C)cc1NC(=O)n1ncc2cc(Cl)ccc21,6%,-3,-5,7.4,27%,-0.1%,8%
O=C(O)CCc1ccc(-c2ccc(Cl)cc2)n1CC(=O)O,-11%,-4,-1,9.0,-15%,-7.9%,-18%
COc1ccc(/C(O)=C/c2nc3ccccc3n(-c3ccccc3)c2=O)cc1,17%,-8,2,?,37%,-1.8%,21%
CCN(c1cccc(C)c1)S(=O)(=O)c1ccc(-n2cccn2)cc1,0%,-14,-9,.,-7%,-0.6%&-0.3%,12%
CCn1c(SCC(=O)N2CCCC2=O)nc2ccccc21,.,-18,.,.,-97%[inhibitor],-1.7%,.
Cc1ccc(Oc2ccccc2NC(=O)CN2C(=O)NC3(CCCC3)C2=O)cc1,-12%,-48,7,.,13%,-1.6%,-4%
CC(C)c1ccc(NC(=O)CCc2ccccc2)cc1,7%,-10,-4,-2.8,-2%[15.4 µM],?,1%
O=C(COC(=O)c1ccc(NS(=O)(=O)c2ccc3c(c2)OCCO3)cc1)NC1CCS(=O)(=O)C1 (stereo not given),-4%,-4,8,7.7,-32%[inhibitor],.,-2%
Cc1ccnn1-c1ccc(C(=O)NCC(c2ccco2)N2CCCC2)cc1 (stereo not given),17%,-3,-3,.,-2%,-2.0%,.
Cc1ccc(C)c(NC(=O)c2ccc(OCc3c(C)noc3C)cc2)c1,-6%,12,-19,.,0%,32µM*,.
CCCCN(C)CCNS(=O)(=O)c1ccc2c(c1)n(C)c(=O)c(=O)n2C,9%,-5,-3,-2.0,?,-8.8%,21%
CC1CSc2nc3sc4c(c3c(=O)n21)CCCC4 (stereo not given),-3%,-29,-23,-1.6,13%,-11%,?
O=C(NCC1CCCO1)c1ccc2c(c1)N(Cc1ccccc1)C(=O)CS2=O (stereo not given),-8%,-6,-10,-5.6,-5%,0.3%,4%
CC(C)C(=O)c1cc2c(cc1NC(=O)c1cccs1)OCCO2,-22%,-5,5,-1.3,3%,-15%,-14%
CCCCCCCC1c2c(c(C)c(C)oc2=O)Oc2c(C)c(C)oc(=O)c21,-5%,-7,-13,.,11%,2.5%,.

# (list continues)
SMILES,gsp antagonist,D2 potentiator,TRPV1 PAM,Menin MLL FP FL,gsp agonist,ClpP mod,Sfp inh
CC(=O)Nc1ccc(S(=O)(=O)NC2(C(F)(F)F)NC(=O)N(c3ccc(C)cc3)C2=O)cc1 (stereo not given),13%,-19,1,.,-7%[15.4 µM],-2.8%&2.2%,7%
Nc1nc2c(Cl)ccc(Cl)c2s1,10%,-12,-32,-1.2,-2%[15.4 µM],.,18%
Cn1c(CCN2CCN(c3ccccn3)CC2)nc2cc(NC(=O)COc3ccccc3)ccc21,-17%,2,26,-2.7,20%,-2.1%,9%
COc1ccccc1-n1c(SCC(N)=O)nc2c(c1=O)SCC2,5%,-5,.,-3.5,?,-4.4%,-3%
CCc1ccc(NC(=S)NC2CCN(Cc3ccccc3)CC2)cc1,-2%,-28,-4,-3.8,6%,-5.7%,-5%
Cc1cc(C(F)(F)F)nn1CC(=O)NCc1cccs1,8%,-7,-9,-4.3,-33%[inhibitor],1.7%,3%
O=[N+]([O-])c1ccc(-c2nnc(S)n2-c2ccccc2)cc1,.,.,4,-4.7,.,.,16%
N#CCCN(NC(=O)OCc1ccccc1)C(=O)OCc1ccccc1,-4%,-13,.,.,1%,0.9%,.
CC(=O)c1ccc(CCCC(=O)O)cc1,-2%,-5,22,-1.0,-39%[inhibitor],-1.1%,3%
COCCNC(=O)c1cc(-c2cccc(OC)c2)on1,1%,-4,-3,0.2,6%,-2.3%,-1%
CC(C)CN1C(=O)c2ccc(NC(=O)c3cccs3)cc2C1=O,3%,3,-12,5.4,-5%,28µM*,-6%
O=S1(=O)c2cccc3cccc(c23)N1CCBr,-25%,-2,20,7.2,-1%[15.4 µM],-0.8%,13%
C=CCn1c(N)c(C(=O)NCCC2=CCCCC2)sc1=S,0%,-11,-17,2.1,-7%,-2.8%,25µM*
O=C(NC1CCCCC1)C(c1ccco1)N(C(=O)c1csnn1)c1ccccc1 (stereo not given),9%,-6,-1,1.5,15%,.,10%
CN(C)c1ccc(/C=C2\NC(=S)N(Cc3ccccc3)C2=O)cc1,-15%,-24,11,?,-1%,1.3%,-6%
O=C(Nc1nnc(COc2ccc(F)cc2)s1)Nc1ccccc1F,2%,-3,-12,0.9,-4%[15.4 µM],.,-15%
CC1=CC(C)(C)N(C(=O)c2ccc(F)cc2)c2cc3c(cc21)OCO3,-1%,-9,6,0.7,-10%,-1.1%,?
CCn1c(SCC(=O)Nc2nccs2)nnc1-c1cc2cccc(OC)c2o1,4%,7,7,-1.9,-11%[15.4 µM],1.0%,-4%
Cn1cc(C(=O)N2CCN(c3ccccn3)CC2)c(=O)c2cc(S(=O)(=O)N3CCOCC3)ccc21,5%,-3,2,1.5,7%,-5.3%,6%
Cc1ccc(C(=O)NCN2CCN(c3ccccc3)CC2)cc1,7%,-29,-14,.,21%,-1.4%,.
COCCCNC(=O)c1cc2cc(Br)ccc2oc1=O,1%,2,-8,5.4,-11%[15.4 µM],.,14%
Cc1ccc(C(=O)N/C(=C/c2cccs2)C(=O)NCCc2c[nH]c3ccccc23)cc1,-18%,-20,26,1.1,-34%[inhibitor],-1.5%,11%
Cc1nnc(NC(=O)CSc2nnc(CNC(=O)c3ccc(F)cc3)o2)s1,10%,-4,-1,-6.0,0%,-2.3%,-4%
CN(C)CCN(C(=O)c1ccc(N2C(=O)CCC2=O)cc1)c1nc2cc3c(cc2s1)OCO3,-3%,-15,10,1.6,-11%[15.4 µM],.,1%
Cc1ccc(N2CN(Cc3cccnc3)CNC2=S)cc1,-13%,0,5,-1.0,?,-2.2%,16%

# (cont.)
SMILES,gsp antagonist,D2 potentiator,TRPV1 PAM,Menin MLL FP FL,gsp agonist,ClpP mod,Sfp inh
O=C(COc1ccc(Br)cc1)Nc1nnc(C2CC2)s1,2%,-1,-8,.,?,-2.8%,.
CC(=O)N1c2ccc(S(=O)(=O)N3CCCC(C(=O)N4CCCCC4)C3)cc2CC1C (stereo not given),0%,-3,24,-3.5,-10%,-2.0%,2%
O=C(NCCCN1CCN(c2ccc(F)cc2)CC1)C1CCCN(c2ncnc3c2nc2n3CCCCC2)C1 (stereo not given),-11%,-17,-3,-0.9,12%,.,9%
Cc1ccc(OCC(=O)Nc2ccc(C(=O)O)cc2NC(=O)COc2ccc(C)c(C)c2)cc1C,?,12,?,.,22%,-0.7%,1%
COc1ccc(NS(=O)(=O)c2ccc(C(=O)N(C)Cc3ccc(C)o3)cc2)cc1,-16%,4,.,.,-57%[inhibitor],0.5%,.
CC1(C)CC(=O)C=C(Nc2ccc(F)cc2F)C1,-6%,-10,-17,0.6,-2%,0.9%,8%
CC1CCN(C(=S)NC(=O)c2cccs2)CC1,-7%,-4,-2,2.3,-19%,.,5%
CN(C(=O)c1cc2n(n1)C(C(F)(F)F)CC(c1ccco1)N2)c1ccccc1 (stereo not given),0%,-25,5,4.8,?,-1.3%,1%
Cc1ccc(C)c(OCc2nnc(NC(=O)c3ccc4c(c3)OCO4)s2)c1,-1%,0,12,-3.3,-12%,-1.6%,12%
O=S1(=O)CCN(Cc2ccccc2Cl)CC1,6%,5,-4,2.5,6%,-2.4%,12%
CCOc1ccccc1CN1CCNC(=O)C1CC(=O)NCc1nccn1CC (stereo not given),6%,-9,-9,-5.9,5%[15.4 µM],-1.9%,-30%
CCOC(=O)N1CCN(C(=O)CNS(=O)(=O)c2cccs2)CC1,15%,-1,-8,-0.2,-13%,0.0%,21%
O=C(CCN1CCN(c2ccccc2)CC1)Nc1ccc2c(c1)OCO2,14%,-14,-9,0.8,?,-4.4%,-4%
COc1ccc2ccccc2c1CN1CCN(C(=O)c2ccco2)CC1,-16%,26,26,0.2,-2%[15.4 µM],0.3%,-7%
